Arbovirus anti – antivirals against arbovirus infection, primary screen, cell-based, full library, 10K replicate subset. inhibition, % at 10 µM. 200,000 tested, 0.37% active. arbovirus infection cell-based antiviral screen;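 active = inhibition from about 30%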;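 also: bluetongue infection of BSR cells; cell survival read as ATP light after 72 h; 0% = infected wells without compound and 100% = uninfected wells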
RecA intein inh – Mtb RecA intein splicing inhibitors, primary screen, biochemical, fluorescence, HTS. 290,000 tested, 0.75% active. inhibition, %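 (about 9 µM by stock and volumes)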. cell-free RecA intein splicing. Protein RecA (Mycobacterium tuberculosis (strain ATCC 25618 / H37Rv)), P9WHJ3; in the data active = inhibition above about 30%; inconclusive = no clear call, values can overlap the other calls;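 also: 0% = vehicle wells and 100% = reference inhibitor control wells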
Target sequence (P9WHJ3 whole entry, looked up): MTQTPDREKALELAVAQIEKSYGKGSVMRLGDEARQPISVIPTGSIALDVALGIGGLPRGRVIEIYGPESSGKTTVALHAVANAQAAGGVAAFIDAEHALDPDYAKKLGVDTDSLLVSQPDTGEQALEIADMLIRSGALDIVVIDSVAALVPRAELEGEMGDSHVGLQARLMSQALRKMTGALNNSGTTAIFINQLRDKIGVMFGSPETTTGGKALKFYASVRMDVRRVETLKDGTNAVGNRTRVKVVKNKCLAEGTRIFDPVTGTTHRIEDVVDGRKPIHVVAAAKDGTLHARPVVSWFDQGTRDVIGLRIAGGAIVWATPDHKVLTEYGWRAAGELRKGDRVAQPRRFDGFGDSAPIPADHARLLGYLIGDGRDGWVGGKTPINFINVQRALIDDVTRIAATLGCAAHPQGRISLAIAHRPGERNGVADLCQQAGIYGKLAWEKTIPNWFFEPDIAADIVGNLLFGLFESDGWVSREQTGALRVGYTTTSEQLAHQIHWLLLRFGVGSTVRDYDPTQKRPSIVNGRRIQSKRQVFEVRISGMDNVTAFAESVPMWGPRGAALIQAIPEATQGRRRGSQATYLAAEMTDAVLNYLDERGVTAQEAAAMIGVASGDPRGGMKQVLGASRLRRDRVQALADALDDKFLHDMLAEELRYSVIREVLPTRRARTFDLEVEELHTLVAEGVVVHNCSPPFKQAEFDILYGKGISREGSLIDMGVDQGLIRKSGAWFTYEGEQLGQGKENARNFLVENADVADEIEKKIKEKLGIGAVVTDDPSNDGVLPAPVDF
YopH inh – YopH tyrosine phosphatase inhibitors, primary screen, biochemical, fluorescence Ex485/Em525; 140,000 tested, 0.16% active; YopH tyrosine phosphatase [Yersinia enterocolitica]; inhibition, %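 (about 10 µM by stock and volumes)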;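 active = inhibition of 50% or more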;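 also: controls were vehicle for no effect and minimum signal wells for full effect; inactives centre near -20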
Mtb growth – M. tuberculosis H37Rv growth inhibitors, H37Rv strain (AID 1626); inhibition, % at 10 µM; hits with a dose series show IC50 in µM; 220,000 tested, 0.95% active; M. tuberculosis H37Rv growth inhibition; higher % means a stronger effect;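 active = confirmed in a dose series; inconclusive = inhibition above 80% but not taken into the dose series; inactive = below 80% or under 30% at every dose of the series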;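 also: bacteria incubated seven days before Alamar blue readout; 0% = bacteria only wells and 100% = bacteria with antibiotic wells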
Mtb bLac sens – beta-lactam sensitization of Mtb H37Rv, H37Rv. M. tuberculosis H37Rv growth with meropenem, percent inhibition; hits of this screen are not shown here. inhibition, % at 25 µM. 330,000 tested, 0.27% active;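 active = about 74% or more and at least 40 points above the plate without the antibiotic, then above 30% in a dose series; inconclusive = first-round hits that could not be retested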;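 also: growth measured after seven days incubation then overnight dye step; 0% = bacteria only wells and 100% = bacteria with antibiotic; twin plates without the antibiotic show which effects depend on it; some results filed as inactive read as strong as hits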
Arbovirus anti repeat – second read-out of Arbovirus anti, no call of its own (marks repeat the call); inhibition, %; measured here: 10K subset replicate screen; many hits read low in the repeat;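 first of two repeat runs on a subset; 0% = infected and 100% = uninfected wells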
The depositor's hits bear a star; ? = inconclusive; . = not tested or not shown.

SMILES | Arbovirus anti | RecA intein inh | YopH inh | Mtb growth | Mtb bLac sens | others
O=C(c1cccc(C(=O)N2CCC(O)(c3ccccc3)CC2)c1)N1CCC(O)(c2ccccc2)CC1 | . | 0.4 | . | . | -6
Cc1ccc(S(=O)(=O)N2CCCC2)cc1C(=O)NC1CCCCC1 | . | 3.2 | . | . | -11
OC(c1ccccc1)(c1ccccc1)C1CCN(C(=S)NCCc2ccccc2)CC1 | -17 | 6.7 | . | 8% | -9
Cc1cc(C)c2nc(SCc3ccc([N+](=O)[O-])cc3)nc(C)c2c1 | -7 | -2.6 | -46 | -3% | 1
COc1cc(NC(=O)CSc2nnc(C)s2)cc(OC)c1 | -4 | -0.7 | -43 | -3% | 10
COc1ccc(CNC(=O)C2CCCN2)cc1OC (centres undefined) | 2 | 5.4 | . | -4% | -3
CC(=O)Oc1c(Sc2ccccc2[N+](=O)[O-])c(C)nn1C(C)(C)C | -10 | 9.3 | . | 0% | -4
COc1ccc(OC)c(C2NC(=O)NC(C)=C2C(=O)OC2CCCCC2)c1 (centres undefined) | . | -5.1 | . | . | -2
CC(C)(C)N/N=C/c1c(O)n(-c2ccc(Cl)cn2)c(=O)c2ccccc12 | -5 | -8.6 | -25 | 1% | -1
O=C(COC(=O)COc1ccccc1)NCCc1ccccc1 | . | -1.8 | . | . | 5
Cc1c(C)n(Cc2ccccc2)c2ncnc(NCCCN(C)C)c12 | . | 0.3 | . | . | 2
CCOC(=O)Cc1csc(NC(=O)c2ccco2)n1 | -6 | -1.1 | -9 | -4% | 0
C=CCn1cc(C(=O)NCCCOCC)c(=O)c2cc(S(=O)(=O)N(CC)CC)ccc21 | 0 | -2.3 | -20 | -7% | 0
CCOc1ccc(N(C(=O)c2ccccc2Cl)C2=NC(C)(C)CS2)cc1 | 2 | 8.8 | . | 10% | 0
CCOc1ccc(Cl)cc1CNCCc1ccccc1F | . | 1.6 | . | 9% | -7
CN1CCN(C(=O)c2cc(Cl)cc(Cl)c2NC(=O)c2ccco2)CC1 | 0 | 2.3 | . | -3% | 2
Nc1[nH]nc2nc(NCc3ccccc3)c3c(c12)CCN(Cc1ccccc1)C3 | 49* | 7.6 | -33 | . | 5
CCC(=O)c1cn(Cc2ccccc2C#N)c2ccccc12 | 3 | -1.9 | -18 | -8% | 10
O=C(c1ccccc1)c1ccc2ccccc2n1 | -7 | 1.8 | -53 | -2% | ?
COc1c(OC(C)=O)ccc(/C=N\NC(=O)c2ccc(Br)cc2)c1[N+](=O)[O-] | -1 | 16 | . | -5% | -2
O=[N+]([O-])c1ccc2c(c1)CNc1ccccc1O2 | -2 | 0.0 | . | 12% | 2
CCc1ccc(CNC(=O)C2CCCN(S(=O)(=O)N3CC(C)CC(C)C3)C2)cc1 (centres undefined) | . | 7.0 | . | . | -10
COc1ccc(NC(=O)C2CCCN2C(=O)NC2CCCCC2)c(OC)c1 (centres undefined) | . | -1.2 | . | . | -6
CSC1=NCCN1C(=O)c1ccc(S(=O)(=O)N2CCOCC2)cc1 | -1 | 1.7 | -48 | -13% | -1 | Arbovirus anti repeat=-2
CNC(=O)CSc1nc2cc(S(=O)(=O)Nc3ccc(OC)cc3)ccc2o1 | . | 7.1 | . | . | -3
The list goes on.
SMILES | Arbovirus anti | RecA intein inh | YopH inh | Mtb growth | Mtb bLac sens | others
COc1ccc(OC)c(S(=O)(=O)NC(N)=NCCc2ccccc2OC)c1 | 5 | -0.6 | . | . | -5
CCN(CC(=O)Nc1ccccc1OC)C(=O)CSCC(=O)Nc1ccc(OC)cc1 | . | 9.8 | . | . | -4
CN(C)CCN(Cc1ccco1)C(=O)c1oc2ccccc2c1NC(=O)COc1ccccc1 | . | -0.7 | . | . | 5
Fc1ccc(/C=N/n2cnn(Cc3ccccc3Cl)c2=S)cc1 | 10 | 2.1 | . | 1% | -7
Cc1ccc(Oc2ccc3c(c2)C(=O)N(c2cccc4cccnc24)C3=O)cc1 | 26 | 3.2 | -36 | -5% | 11
CCc1nnc(NC(=O)CSc2nnc(C)n2Cc2ccccc2)s1 | 3 | 1.3 | -33 | -7% | -3
CCOc1ccc(NS(=O)(=O)c2ccc(NS(=O)(=O)c3cccs3)cc2)cc1 | . | 0.2 | . | . | -10
Clc1ccccc1Cn1nnc(-c2cccs2)n1 | -2 | 1.1 | -16 | 4% | -5
O=C(N/N=C/c1cccc(O)c1)c1cc(-c2ccccc2)nc2ccccc12 | . | 5.9 | . | . | -2
COC(=O)c1ccc2c(=O)n(Cc3ccc(C(=O)NCCCN4CCOCC4)cc3)c(=S)[nH]c2c1 | . | -0.9 | . | . | 98
CN=c1sc2ccccc2n1CC(O)c1ccccc1 (centres undefined) | -17 | 0.7 | . | -8% | 3
COc1cc(C(=O)O)cc(NC(=O)c2cccs2)c1OC | -3 | -0.2 | -23 | -9% | -5
COc1ccc(S(=O)(=O)N2CCOCC2)c(C)c1C | -3 | 0.4 | -6 | 0% | 3
CC(C)OCC(O)CCc1n[nH]c(=S)n1-c1ccccc1 (centres undefined) | -5 | -0.2 | -21 | 3% | 3
CCc1cc2cc(C)cc(C)c2nc1SCC(=O)N1CCCC1 | -6 | . | -18 | -8% | 2
CN(Cc1ccccc1)C(=O)COC(=O)C1CCN(S(=O)(=O)c2ccc(Cl)c(C(F)(F)F)c2)CC1 | . | -1.3 | . | . | -7
CC(=O)N1N=C(c2ccc3ccccc3c2)OC1(C)C | 0 | -0.5 | -15 | 6% | 2
CSc1ccc(C(=O)C2CCCN(C(=O)CCc3cnn(C)c3)C2)cc1 (centres undefined) | . | 2.1 | . | . | ?
COC(=O)CC1SC(=O)NC1=O (centres undefined) | 6 | . | 21 | 2% | 0
COc1cc([N+](=O)[O-])cc2sc(NC(=O)c3c(F)cccc3F)nc12 | 13 | . | . | -4% | -2
CC(/C=C(\C)Nc1ccccc1)=Nc1ccccc1 | 5 | -0.4 | . | 1% | -3
CC(O)[C@H]1CNCCN1CCc1cccc2ccccc12 (some centres undefined) | . | 0.1 | . | . | -9
COc1ccc(C2/C=C\CN(S(=O)(=O)c3cccc4cccnc34)CC(=O)N2Cc2ccc(F)cc2)cc1 (centres undefined) | . | -5.1 | . | -2% | -9
COc1ccc(/C=C(\C#N)C(=O)OCC(=O)NC(=O)NCCC(C)C)cc1 | -4 | 0.5 | . | 0% | -7
O=C(CC(Cc1ccccc1)c1ccco1)NC1CCCCC1 (centres undefined) | 12 | 2.6 | -4 | -6% | -2
Next part.
SMILES | Arbovirus anti | RecA intein inh | YopH inh | Mtb growth | Mtb bLac sens | others
COc1cc(C2C(C(C)=O)=C(O)C(=O)N2CCc2ccc(OC)c(OC)c2)ccc1O (centres undefined) | 6 | -6.1 | -33 | 0% | -5
O=C(OCc1nc2scc(-c3ccccc3)c2c(=O)[nH]1)c1cccc([N+](=O)[O-])c1 | 1 | -0.5 | -16 | 2% | 2
O=C(O)COc1ccc(Br)cc1/C=N/O | -3 | -4.9 | -18 | 4% | -16 | Arbovirus anti repeat=6
FC(F)(F)c1cnc(COc2ccc(Cl)cc2Cl)c(Cl)c1 | . | 1.7 | . | -12% | 1
O=C(c1ccc(Cl)c([N+](=O)[O-])c1)N1CCN(C(=O)c2ccco2)CC1 | 4 | -1.2 | . | -4% | 6
Cc1ccnc(NC(=O)Cc2ccc(F)cc2)n1 | . | -5.3 | . | -4% | -2
COC(=O)COc1cccc2c(=O)n(CC(=O)Nc3ccc4c(c3)OCCO4)ccc12 | 4 | -6.5 | . | 0% | 5
Cc1c(N=Cc2c(O)n(C3CCCCC3)c(=O)[nH]c2=O)c(=O)n(-c2ccccc2)n1C | 2 | -1.8 | -31 | -7% | -4
O=C(Nc1ccc(O)cc1)c1ccc(NC(=O)c2cccs2)cc1 | . | 1.9 | . | . | -1
CCOc1ccc(-c2nnc3ccc(SCC(=O)Nc4nc5ccccc5s4)nn23)cc1 | -12 | -0.1 | 65* | -2% | -6
CCOc1ccc(NC(=O)CCS(=O)(=O)c2cccc3nsnc23)cc1 | -2 | 0.4 | -30 | 0% | -5 | Arbovirus anti repeat=-1
CCc1ccc(C2C(C#N)=C(N)OC3=C2C(=O)CCC3)s1 (centres undefined) | 2 | 1.6 | . | 0% | -4
O=C(NC1(C(F)(F)F)NC(=O)N(C2CCCCC2)C1=O)c1cccs1 (centres undefined) | 4 | 0.1 | -149 | -10% | -6
CCN(CC)S(=O)(=O)c1ccc(N2CCCC2)c(NC(=O)CN2C(=O)NC3(CCCC3)C2=O)c1 | . | -1.9 | . | . | -7
O=C(Cc1cccs1)Nc1ccc(C(=O)O)cc1 | 6 | 10 | -50 | 3% | -10
CCC1CCCCN1CCCNC(=O)c1cn(CC)c2ccc(S(=O)(=O)N3CCc4ccccc4C3)cc2c1=O (centres undefined) | -19 | 1.4 | . | 11% | -3
Cc1c(N2C(=O)CSC2c2ccccc2)c(=O)n(-c2ccccc2)n1C (centres undefined) | . | 4.5 | . | -4% | -9
COc1ccc(N2CCCCn3c2nc2c3c(=O)[nH]c(=O)n2C)cc1 | 3 | -1.3 | -23 | -12% | -12 | Arbovirus anti repeat=4
C#CC1(O)CC(C)NCC1(C)CCC#N (centres undefined) | 3 | -3.4 | -35 | -1% | -10
CCc1nc2ccccc2n1CCC(=O)O | 8 | 0.5 | -13 | -6% | -1
Cc1ccccc1Oc1ccc(NC(=O)C2CC=CCC2C(=O)O)cc1 (centres undefined) | 14 | 3.2 | -30 | -5% | -5
CCN(C(=O)CSC1=Nc2ccccc2C2CC=NN12)C1CCS(=O)(=O)C1 (centres undefined) | -8 | 2.0 | . | 0% | 2
Cc1ccccc1C(=O)NC1CCN(CC(=O)Nc2c(C)cccc2C)CC1 | 2 | 0.5 | -14 | -4% | 4
O=C(CCc1nc2ccccc2n1-c1ccccc1)NCCO | 1 | -2.7 | -10 | 1% | -8
CCOc1ccc(C(=O)CCC(=O)NC(CC(C)C)C(=O)OC)cc1 (centres undefined) | 1 | 11 | . | 25% | 74

Four neighbouring compounds out of the list so far:
SMILES | Arbovirus anti | RecA intein inh | YopH inh | Mtb growth | Mtb bLac sens | others
COc1ccc(CNC(=O)C2CCCN2)cc1OC (centres undefined) | 2 | 5.4 | . | -4% | -3
CC(=O)Oc1c(Sc2ccccc2[N+](=O)[O-])c(C)nn1C(C)(C)C | -10 | 9.3 | . | 0% | -4
COc1ccc(OC)c(C2NC(=O)NC(C)=C2C(=O)OC2CCCCC2)c1 (centres undefined) | . | -5.1 | . | . | -2
CC(C)(C)N/N=C/c1c(O)n(-c2ccc(Cl)cn2)c(=O)c2ccccc12 | -5 | -8.6 | -25 | 1% | -1

The main list resumes; the 5 compounds before the break are reprinted first.
SMILES | Arbovirus anti | RecA intein inh | YopH inh | Mtb growth | Mtb bLac sens | others
Cc1ccccc1Oc1ccc(NC(=O)C2CC=CCC2C(=O)O)cc1 (centres undefined) | 14 | 3.2 | -30 | -5% | -5
CCN(C(=O)CSC1=Nc2ccccc2C2CC=NN12)C1CCS(=O)(=O)C1 (centres undefined) | -8 | 2.0 | . | 0% | 2
Cc1ccccc1C(=O)NC1CCN(CC(=O)Nc2c(C)cccc2C)CC1 | 2 | 0.5 | -14 | -4% | 4
O=C(CCc1nc2ccccc2n1-c1ccccc1)NCCO | 1 | -2.7 | -10 | 1% | -8
CCOc1ccc(C(=O)CCC(=O)NC(CC(C)C)C(=O)OC)cc1 (centres undefined) | 1 | 11 | . | 25% | 74
CCCCC(=O)Nc1ncc(Br)s1 | -1 | 0.4 | -29 | 9% | -5
CCC(CC)C(=O)Nc1ccc(-c2cn3cccnc3n2)cc1 | . | -0.8 | . | . | 4
COc1ccccc1N1CCN(c2ccc([N+](=O)[O-])cc2Cl)CC1 | 3 | 16 | -18 | 9% | ?
O=C(Nc1ccc2c(c1)OCO2)Nc1cnccn1 | -11 | 2.3 | -7 | 3% | -11
COCC(=O)N1CCC(Oc2ccc(C(=O)NC3Cc4ccccc4C3)cc2)CC1 | . | 2.2 | . | . | -4
Brc1ccc2c(c1)[C@H]1OCC[C@H]1[C@@H](c1cccs1)N2 | . | 2.1 | . | 7% | 12
[O-]/[N+](=C/c1ccc(F)cc1)c1ccccc1 | 2 | -5.2 | 53* | -5% | -2
CCOC(=O)C1CCN(c2ncnc3nc[nH]c23)CC1 | 1 | 4.0 | -29 | 3% | -3
Cc1nnc(NC(=O)CSC2=NN3CCCC(=O)N=C3S2)s1 | 4 | -1.1 | . | 2% | -3
CCOC(=O)C1CCCN(C(=O)CN2C(=O)/C(=C/c3ccc(OC)cc3)Oc3ccccc32)C1 (centres undefined) | 4 | -37 | -8 | 7% | 75
Cc1cc(NC(=O)COC(=O)c2c(C)nn(Cc3ccccc3)c2C)no1 | -7 | -0.4 | 6 | 2% | -8
c1ccc(-c2noc(CN3CCOCC3)n2)cc1 | 1 | -4.1 | . | -3% | -7

Source: PubChem BioAssay

These rows are one share of the data; count on the stated rates, not on these rows.
